From PubChem
Rango dissoc inh: inhibition of RanGTP-driven Rango-importin beta dissociation | O95149+P62826 | Biochemical FRET Rango-importin beta, RanGTP-induced dissociation | Potency, µM (series often up to 46.1 µM), for inactives: top-dose activity change, negative = inhibition | 340,000 tested, 0.071% active | AID 540253; active means falling FRET ratio curve, often poorly fitted, with flat reads before Ran was added; inconclusive means other falling curves, or compound fluorescence or quenching; inactive means flat or rising ratio curve;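 further: potency means the concentration at half of the fitted maximal effect; % of control where 0% means no effect; nearly all actives have a fitted effect of over 45% in size; -100% = wells without RanGTP and RCC1; the record marks most hits as doubtful in a second field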
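Rango FRET biosensor (snurportin-1 IBB flanked by N-terminal EYFP and C-terminal CFP10) at 0.1 uM, with 0.25 uM importin beta in PBS, 1mM DTT, 0.02% Tween-20, 0.1% BSA. 0.6 uM Ran, 2mM GTP and 0.2 uM RCC1 were then added for 45 min at room temperature. Inhibition read as loss of FRET rise.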
Rango complex inh: Rango-importin beta binding inhibition; Potency, µM (series often up to 92.2 µM), for the others: top-dose inhibition of complex formation; Q14974; AID 540263; 340,000 tested, 0.031% active; Rango CFP/YFP FRET sensor + importin beta, 45 min; active = rising FRET ratio curve, often small or poorly fitted; inconclusive = mostly compound fluorescence or quenching in the first reads; inactive = flat curves in all reads;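 further: potency means the concentration at half of the fitted maximal effect; 0% = DMSO wells and 100% = buffer wells lacking importin beta; nearly all actives have a fitted effect of over 15% in size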
Target sequence (Q14974 whole entry, looked up): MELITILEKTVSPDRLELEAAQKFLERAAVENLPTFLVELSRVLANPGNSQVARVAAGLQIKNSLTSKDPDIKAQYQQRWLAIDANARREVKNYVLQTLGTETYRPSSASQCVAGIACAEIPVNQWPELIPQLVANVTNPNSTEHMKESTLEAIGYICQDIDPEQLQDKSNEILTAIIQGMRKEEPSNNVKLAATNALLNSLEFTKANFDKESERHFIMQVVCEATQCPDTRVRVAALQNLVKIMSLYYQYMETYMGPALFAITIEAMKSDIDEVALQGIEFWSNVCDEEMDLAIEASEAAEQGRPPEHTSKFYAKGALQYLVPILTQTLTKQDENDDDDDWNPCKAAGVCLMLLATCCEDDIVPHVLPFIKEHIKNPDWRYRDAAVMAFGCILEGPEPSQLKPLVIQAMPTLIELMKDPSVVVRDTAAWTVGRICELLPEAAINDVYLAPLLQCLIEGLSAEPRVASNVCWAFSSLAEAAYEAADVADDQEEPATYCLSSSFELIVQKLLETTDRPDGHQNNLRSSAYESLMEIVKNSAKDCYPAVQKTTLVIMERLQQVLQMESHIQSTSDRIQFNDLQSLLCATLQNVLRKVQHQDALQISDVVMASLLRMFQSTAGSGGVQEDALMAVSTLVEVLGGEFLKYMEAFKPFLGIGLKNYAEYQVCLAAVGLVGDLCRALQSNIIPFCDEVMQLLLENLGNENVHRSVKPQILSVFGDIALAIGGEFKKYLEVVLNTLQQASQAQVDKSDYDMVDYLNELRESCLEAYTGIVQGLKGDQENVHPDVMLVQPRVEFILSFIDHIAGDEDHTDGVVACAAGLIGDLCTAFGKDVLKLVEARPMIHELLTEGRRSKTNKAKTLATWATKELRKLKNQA
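FRET biosensor (snurportin 1 IBB flanked by EYFP and cerulean), 50 nM, with compound 5 min, then 0.125 microM importin beta in PBS, 1 mM DTT, 0.02% Tween-20, 0.1% BSA. CFP/YFP ratio read after 45 min at room temperature; pre-read flags interference.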
miR-21 FLuc: miR-21 reporter, rising signal | AID 2288 | Potency, µM (series often up to 38.3 µM), for the others: at the top dose reporter change, positive = more light | 340,000 tested, under 10 active | HeLa miR-21 FLuc reporter, luciferase, 48 h; active = well fitted rising curve with a large enough effect; inconclusive = small, poorly fitted or top-dose-only effect; inactive = no such curve, though single readings can be large or run the other way;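 further: % of control where 0% means no effect; miR-21 action dims this reporter so a rising signal means less miR-21 action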
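Compounds were titrated across several concentrations (up to approximately 40 uM) and incubated 48 hours with HeLa miR-21-FLuc reporter cells (miR-21 target sequence downstream of FLuc, endogenous miR-21). Readout was firefly luciferase luminescence after lytic detection reagent.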
GLA inh pH 4.5: blocks human alpha-galactosidase A at pH 4.5 | activity change, negative = inhibition, % at 105 µM | purified enzyme, 4-MU-alpha-Gal fluorescence, pH 4.5 | 230,000 tested, under 10 active | AID 1467 | P06280; inconclusive = small, poorly fitted or top-dose-only inhibition, or a rising curve; inactive = flat fitted curve, though single readings scatter; no compound was filed as active;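 further: 0% = full activity with enzyme and -100% = basal without enzyme; dose as in the result columns while the protocol names 77 µM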
Starred values were filed as active, the others as inactive; ? = inconclusive; / = no result given; & = joins results of further samples. Only part of the results is shown (hit frequency here may not be typical).

SMILES	Rango dissoc inh	Rango complex inh	miR-21 FLuc	GLA inh pH 4.5
O=C(C1CCC1)N1CCc2cc(S(=O)(=O)NCCN3CCN(c4ccccc4F)CC3)ccc21	3.0%	-4.9%	18.1%	-17.4
CCOC(=O)c1csc(NC(=O)c2cc(=O)c3ccccc3o2)n1	15.3%	0.5%	-24.8%	-7.2
Cc1cccc(Nc2ncc3c(n2)CC(C)CC3=O)c1 (configuration not stated)	3.2%	-0.6%	-58.3%	-0.2
Cc1ccc(NC(=O)CSc2nc(-c3ccco3)cc(C(F)(F)F)n2)cc1C	-19.3%	-0.8%	21.9%&13.9%	-0.5
COc1cc(-c2cc(C(=O)OCC(=O)NC3CC3)c3ccccc3n2)cc(OC)c1OC	11.3%	-2.7%	/	/
O=C(CSc1nnc(NC2CCCCC2)s1)Nc1ccc(N2CCOCC2)cc1	-7.1%	-2.9%	-33.2%	-0.7
CC(CNC(=O)C1CCCCC1C(=O)O)c1ccccc1 (configuration not stated)	-3.0%	0.0%	-0.9%	4.3
COc1ccc(OC)c(/C=N/N2CCN(c3ccc(Cl)cc3)CC2)c1	10.7%	0.5%	-1.2%	/
CC1CCCN(Cc2cccc(Oc3ccccc3)c2)C1 (configuration not stated)	-2.6%	-1.2%	-5.7%	3.2
COc1cc(CC(NC(C)=O)C(=O)NC2CCN(C(=O)c3cc(OC)c(OC)c(OC)c3)CC2)cc(OC)c1 (configuration not stated)	17.0%	-0.6%	2.2%	8.3
COc1cc(/C=C(/C#N)C(=O)NCCCc2ccccc2)ccc1OCC(=O)O	29.2%	-0.3%	0.4%	/
CCN1CCN(C(=O)C2CCN(Cc3nc(-c4cccc(Cl)c4)oc3C)CC2)CC1	4.8%	7.1%	-7.0%	6.2
Cc1ccc(S(=O)(=O)N(C)CC(O)Cn2c3ccccc3c3ccccc32)cc1 (configuration not stated)	36.7%	-0.5%	3.6%	-21.8
CCS(=O)(=O)c1ccc2oc(Nc3cc(C)cc(C)c3)nc2c1	11.5%	3.5%	-17.5%	2.7
CCn1cc(CNC(=O)c2cc(-c3ccccc3OC)nc3ccccc23)c(C)n1	8.9%	-0.6%	1.9%	4.4
O=C(COC(=O)CCSc1ccc(Cl)cc1)NCCc1ccccc1	-8.5%	0.9%	0.1%	-2.0
Cc1ccccc1C(=O)Nc1cccc(NC(=S)NC(=O)c2cccs2)c1	-1.4%	0.1%	-8.8%	16.7
COC(=O)c1ccccc1NC(=O)C1CCCN(S(=O)(=O)c2ccccc2)C1 (configuration not stated)	-6.4%	0.0%	18.2%	-4.8
Oc1ccccc1N=N/C(=N/Nc1ccccc1O)c1ccccc1	-6.1%	-0.9%	/	/
CCOc1ccc(OCCC(=O)OCC(=O)Nc2cc(S(=O)(=O)N3CCOCC3)ccc2C)cc1	-9.9%	0.5%	/	/

Entries above that contain a COOH group:
SMILES	Rango dissoc inh	Rango complex inh	miR-21 FLuc	GLA inh pH 4.5
CC(CNC(=O)C1CCCCC1C(=O)O)c1ccccc1 (configuration not stated)	-3.0%	0.0%	-0.9%	4.3
COc1cc(/C=C(/C#N)C(=O)NCCCc2ccccc2)ccc1OCC(=O)O	29.2%	-0.3%	0.4%	/

In the list so far, these contain a halogen:
SMILES	Rango dissoc inh	Rango complex inh	miR-21 FLuc	GLA inh pH 4.5
O=C(C1CCC1)N1CCc2cc(S(=O)(=O)NCCN3CCN(c4ccccc4F)CC3)ccc21	3.0%	-4.9%	18.1%	-17.4
Cc1ccc(NC(=O)CSc2nc(-c3ccco3)cc(C(F)(F)F)n2)cc1C	-19.3%	-0.8%	21.9%&13.9%	-0.5
COc1ccc(OC)c(/C=N/N2CCN(c3ccc(Cl)cc3)CC2)c1	10.7%	0.5%	-1.2%	/
CCN1CCN(C(=O)C2CCN(Cc3nc(-c4cccc(Cl)c4)oc3C)CC2)CC1	4.8%	7.1%	-7.0%	6.2
O=C(COC(=O)CCSc1ccc(Cl)cc1)NCCc1ccccc1	-8.5%	0.9%	0.1%	-2.0

Further structures follow.
SMILES	Rango dissoc inh	Rango complex inh	miR-21 FLuc	GLA inh pH 4.5
COc1ccc(-n2nc(C(=O)NCC(=O)N3CCCC3)c3ccccc3c2=O)c(OC)c1	3.3%	-2.1%	-10.2%	/
CN1CCN(C(=O)c2cc(=O)c3cc(Cl)ccc3o2)CC1	0.0%	-1.0%	0.3%	/
Cc1ccc2c(c1)-c1c(ssc1=S)C(C)(C)N2C(=O)c1ccco1	6.7%	-0.6%	?	-8.8
Oc1c(Br)cc(C2N=C(c3ccccc3)NO2)cc1Br (configuration not stated)	13.0%	-4.1%	-35.8%	9.0
CCC(Sc1nc2ccsc2c(=O)n1Cc1ccc(C(=O)O)cc1)C(=O)Nc1ccc(C)c(Cl)c1 (configuration not stated)	35.0%	-5.8%	6.5%	/
COc1ccc(S(=O)(=O)N2CC(C)OC(C)C2)cc1C(=O)N1CCCCC1 (configuration not stated)	-7.2%	-1.0%	-2.3%	/
CCc1ccc(N(C(=O)CCC(=O)Nc2cc(C)on2)C(C(=O)NC(C)(C)C)c2ccc(OC)cc2)cc1 (configuration not stated)	-5.5%	-0.9%	5.9%	/
O=C(O)C(Cc1ccccc1[N+](=O)[O-])N1C(=O)c2ccccc2C1=O (configuration not stated)	1.4%	0.6%	/	/
CCOC(=O)/C(N=Nc1sc(C(=O)OC)c(C)c1C(=O)OCC)=C(\O)CCl	0.3%	9.7%	-4.6%	-5.4
O=C(CCc1nnc(CCC2CCCCC2)o1)NCCn1cccn1	11.0%	-1.5%	-0.3%	-0.5
CCOc1ccc(S(=O)(=O)Nc2cc(OC)c(OC)cc2C(=O)O)cc1	-2.7%	2.4%	-1.8%	7.0
COC(CNC(=O)c1cnn2c(C)c(Cc3ccccc3)c(C)nc12)OC	11.4%	0.0%	9.9%	1.9
O=C(CNC(=O)OCc1ccccc1)NC(Cc1cnc[nH]1)C(=O)O (configuration not stated)	-3.7%	2.8%	/	/
Cc1ccc(Nc2cc(C)nc(N3CCOCC3)n2)cc1	2.5%	-3.2%	-33.9%	2.1
O=c1[nH]ncc(NCCCO)c1Cl	-4.0%	-1.0%	-7.9%	2.1
O=C(CCn1nnc2ccccc21)Nc1nnc(COc2ccccc2F)s1	-6.9%	1.2%	-9.9%	3.7
COc1ccc(CCNC(=O)c2cc3c(C)nccc3[nH]c2=O)cc1OC	-0.9%	-1.0%	-2.6%	6.4
c1ccc2c(c1)nc1n2CCN1	0.4%	1.8%	-11.2%	0.5
Cc1cc(=O)oc2cc(OCC(=O)OCC(=O)NC(C)C)ccc12	1.7%	0.6%	-0.9%	-0.9
CCC1(C)CN=C(c2ccccc2)NC1 (configuration not stated)	-2.7%	-1.5%	/	/

As a short view, three of the compounds above:
SMILES	Rango dissoc inh	Rango complex inh	miR-21 FLuc	GLA inh pH 4.5
COc1ccc(-n2nc(C(=O)NCC(=O)N3CCCC3)c3ccccc3c2=O)c(OC)c1	3.3%	-2.1%	-10.2%	/
CN1CCN(C(=O)c2cc(=O)c3cc(Cl)ccc3o2)CC1	0.0%	-1.0%	0.3%	/
Cc1ccc2c(c1)-c1c(ssc1=S)C(C)(C)N2C(=O)c1ccco1	6.7%	-0.6%	?	-8.8

Next records.
SMILES	Rango dissoc inh	Rango complex inh	miR-21 FLuc	GLA inh pH 4.5
CC(=O)C1=C(O)C(=O)N(c2ccccn2)C1c1cccc(F)c1 (configuration not stated)	5.1%	-0.1%	-13.7%	/
COc1ccc(CCNC(=O)c2ccc(N3CCCC3=O)cc2)cc1	-15.9%	1.0%	-4.2%	-4.2
CCOC(=O)N1CCN(C(=O)c2cn(CC)c3cc(N4CCN(C)CC4)c(F)cc3c2=O)CC1	/	/	-7.1%	-1.3
O=C(CN(c1cccc(Cl)c1)S(=O)(=O)c1ccc(Cl)cc1)NCc1ccccn1	3.8%	0.2%	15.3%	/
COc1cc2ccccc2cc1C(=O)Nc1ccc(N2CCN(C(=O)C(C)C)CC2)cc1	0.8%	0.4%	1.7%	/
COc1cccc(-c2cc(C(=O)NCC3CCCO3)c3ccccc3n2)c1 (configuration not stated)	0.4%	6.7%	6.6%	10.5
CC(C)C(=O)N1CCN(c2ccccc2NC(=O)c2ccc(Br)o2)CC1	-11.9%	1.3%	/	/
O=S(=O)(NCCNS(=O)(=O)c1c(F)cccc1F)c1ccc2c(c1)OCCO2	1.0%	-0.4%	/	/
Cc1cc(-c2c(C)[nH]n(-c3ccc(Cl)cc3)c2=O)n(-c2ccccc2)n1	4.6%	3.2%	-5.6%	-1.8
O=[N+]([O-])c1cccnc1Oc1cccnc1	7.0%	0.3%	3.6%	5.1
COc1ccc(C2NC3=C(CCCC3)C(C#N)(C#N)C2(C#N)C#N)cc1 (configuration not stated)	/	/	-2.4%	-5.3
COC(=O)C1=C(CS(=O)(=O)c2ccccc2)NC(=O)NC1c1ccc(OC)c(OC)c1 (configuration not stated)	-18.2%	-0.7%	0.8%	/
COC(=O)c1ccc(NC(=O)c2ccc(F)cc2)o1	-8.1%	1.8%	-8.6%	8.4
CCOc1ccc2[nH]c(=O)c(CN(Cc3ccc(F)cc3)C(=O)c3ccco3)cc2c1	-24.0%	?	18.2%	-5.3
Clc1ccc(Oc2nc(Oc3ccc(Cl)cc3)nc(N3CCOCC3)n2)cc1	-4.3%	1.3%	0.2%	-6.4
COc1cccc(/C=C/C(=O)Oc2ccc(C(=O)c3ccc(F)cc3)cc2)c1	-14.6%	0.1%	-11.8%	-11.8
O=C(NCCOc1ccccc1)C1CCCN1C(=O)c1cccs1 (configuration not stated)	4.4%	0.4%	-0.2%	-5.1
CCCc1nnc(NC(=O)CCC(=O)N2CCN(Cc3cc(F)ccc3OC)CC2)s1	-8.4%	?	-3.6%	/
Nc1c(-c2cccc(Cl)c2)cnn1-c1ccccc1	-0.3%	5.8%	-52.9%	/
Nc1cccc(NP(=O)(c2ccccc2)c2ccccc2)c1	-7.1%	-0.4%	-1.2%	-11.2
CCOC(=O)c1c(CSc2ccccc2)n(C)c2cc(Br)c(OCC(O)CNC(CO)(CO)CO)cc12 (configuration not stated)	-18.1%	?	-3.7%	-0.7
Cc1ccc(-n2nc(C)cc2NC(=O)CC#N)cc1	0.4%	?	-4.9%	-3.4
CC/C(=N/Nc1ccccc1)c1cnnc(-c2ccccc2)n1	8.0%	-2.5%	-5.3%	3.5
CCOC(=O)CNC1CC(=O)N(c2ccc(Br)cc2)C1=O (configuration not stated)	-2.1%	-3.6%	-6.4%	/
COc1cccc(-c2nnc(-c3ccc4ccccc4c3)o2)c1	-18.5%	-0.1%	/	/
Cn1c(=O)c2c(ncn2CC(=O)OCC(=O)NCc2ccccc2Cl)n(C)c1=O	-2.6%	2.6%	0.5%	11.1
S=C(NCc1ccc(Cl)c(Cl)c1)NCc1ccco1	4.1%	-0.1%	-1.9%	/
COc1ccc(-c2nc(C)sc2C)cc1	-13.5%	0.4%	-19.6%	-5.1
CCOC(=O)c1ccc(N2C(=O)CC(N3CCC(O)(c4ccc(Br)cc4)CC3)C2=O)cc1 (configuration not stated)	9.8%	0.6%	0.4%	-11.3
Cc1c(C(=O)NCCN2CCOC2=O)oc2c(F)cccc12	-10.8%	-3.3%	-14.9%	/
Cc1cccc(Cn2nc(C)c(NC(=O)c3ccc(F)cc3)c2C)c1	6.5%	-1.8%	7.8%	-1.4

In another format: 3 of the compounds above
Results follow in this order: Rango dissoc inh	Rango complex inh	miR-21 FLuc	GLA inh pH 4.5
> Cc1ccc(-n2nc(C)cc2NC(=O)CC#N)cc1
  0.4%	?	-4.9%	-3.4
> CCOC(=O)CNC1CC(=O)N(c2ccc(Br)cc2)C1=O (configuration not stated)
  -2.1%	-3.6%	-6.4%	/
> COc1ccc(-c2nc(C)sc2C)cc1
  -13.5%	0.4%	-19.6%	-5.1
